# Vaccinia stage: blocks a specific stage of Vaccinia orthopoxvirus infection, primary screen, cell-based, single point; activity change (mCherry), % (no concentration beside the values); 89,000 compounds, 0.01% hits; AID 1053133, 2014; Vaccinia-infected cells, mCherry/Venus stage reporter fluorescence; active compounds read low; some inactives read as strong as hits;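 active means mCherry past -33% and 40 or more points under the early reporter, replicates agreeing; inconclusive means past -33% without that gap or agreement; tested in A549 cells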;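 further: scaled between vehicle wells and reference inhibitor wells; 23 nL library stock went into each well; one replicate is shown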
# Vaccinia stage Venus: also measured in Vaccinia stage; calls as there; activity change (Venus), %; measured here: Venus reporter, other viral stage;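 negative = less Venus signal; first of two replicates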
# Numbers without * were called inactive; ? = inconclusive; · = no result given.
# Values run as follows: Vaccinia stage	Vaccinia stage Venus
CCCN(C)C[C@@H]1OCCCC[C@@H](C)Oc2ccc(NC(=O)Nc3ccc(F)cc3)cc2C(=O)N([C@H](C)CO)C[C@H]1C
  -26	-7
O=C(NCC[C@H]1CC[C@H](NC(=O)C2CC2)[C@@H](CO)O1)c1cc(Cl)cc(Cl)c1
  -8	-7
CCN1[C@@H]2Cn3c(ccc(-c4ccccc4OC)c3=O)[C@H]1[C@@H](C(=O)N[C@H](C)c1ccccc1)[C@@H]2CO
  11	4
Cc1noc(C)c1NC(=O)Nc1ccc2c(c1)C(=O)N([C@H](C)CO)C[C@H](C)[C@H](CN(C)S(=O)(=O)c1ccc(F)cc1)OCCCC[C@H](C)O2
  14	8
CO[C@H]1CN(C)C(=O)c2cc(NC(C)=O)ccc2OC[C@@H](C)N(CCc2ccccc2)C[C@@H]1C
  -9	-8
COc1ccc(CN(C)C[C@@H]2Oc3ccc(NC(=O)Cc4ccccc4)cc3CC(=O)N([C@@H](C)CO)C[C@H]2C)cc1
  -25	-20
CCC(=O)N(C)C[C@H]1Oc2ncc(-c3ccc(C)cc3)cc2C(=O)N([C@@H](C)CO)C[C@H]1C
  -10	-5
C/C=C/c1ccc([C@@H]2[C@@H](CO)N3C(=O)CN(C(=O)c4cccc(F)c4)C[C@@H]23)cc1
  -27	-29
CO[C@H]1CN(C)C(=O)c2cc(NC(C)=O)ccc2OC[C@@H](C)N(CCC(F)(F)F)C[C@@H]1C
  -6	-6
Cc1cccc(S(=O)(=O)N2CC[C@@H]3[C@H](CO)N(C)c4ccc(-c5ccccc5F)cc4[C@@H]32)c1
  -19	-11
C[C@H]1CN([C@@H](C)CO)S(=O)(=O)c2ccc(-c3cccc(F)c3)cc2O[C@@H]1CN(C)C(=O)C1CC1
  -22	-16
Cc1ccccc1-c1cnc2c(c1)C(=O)N([C@@H](C)CO)C[C@@H](C)[C@H](CN(C)Cc1ccccc1F)O2
  ?	-15
C[C@H]1CN([C@@H](C)CO)C(=O)Cc2cc(NC(=O)c3ccncc3)ccc2O[C@@H]1CN(C)S(=O)(=O)c1ccc(Cl)cc1
  10	5
COc1ccc2c3c(n(C)c2c1)[C@@H](CO)N(CC1CCCC1)CC31CCN(C(C)=O)CC1
  6	5
C[C@H](CO)N1C[C@H](C)[C@H](CN(C)Cc2ccccc2)Oc2ccc(NS(=O)(=O)c3ccc(F)cc3)cc2CC1=O
  -21	-15

# 3 compounds out of the list, arranged by molecular weight, largest number first.
# Values run as follows: Vaccinia stage	Vaccinia stage Venus
CCCN(C)C[C@@H]1OCCCC[C@@H](C)Oc2ccc(NC(=O)Nc3ccc(F)cc3)cc2C(=O)N([C@H](C)CO)C[C@H]1C
  -26	-7
C[C@H](CO)N1C[C@H](C)[C@H](CN(C)Cc2ccccc2)Oc2ccc(NS(=O)(=O)c3ccc(F)cc3)cc2CC1=O
  -21	-15
O=C(NCC[C@H]1CC[C@H](NC(=O)C2CC2)[C@@H](CO)O1)c1cc(Cl)cc(Cl)c1
  -8	-7

# Next part
# Values run as follows: Vaccinia stage	Vaccinia stage Venus
C[C@@H]1CN([C@H](C)CO)C(=O)c2cc(NC(=O)C3CCCCC3)ccc2O[C@@H](C)CCCCO[C@@H]1CN(C)C(=O)Nc1ccc2c(c1)OCO2
  8	4
C[C@H]1CN([C@@H](C)CO)C(=O)c2cc(N(C)C)ccc2O[C@@H]1CN(C)S(=O)(=O)c1cn(C)cn1
  9	0
C[C@@H]1CCCCO[C@H](CN(C)S(=O)(=O)c2cccs2)[C@@H](C)CN([C@@H](C)CO)C(=O)c2cc(NC(=O)Nc3ccc4c(c3)OCO4)ccc2O1
  10	17
C[C@@H]1CN([C@H](C)CO)C(=O)Cc2cc(NC(=O)Nc3ccc4c(c3)OCO4)ccc2O[C@H]1CN(C)Cc1ccc(C(F)(F)F)cc1
  -27	-13
COc1ccc(NC(=O)Nc2ccc3c(c2)CC(=O)N([C@@H](C)CO)C[C@H](C)[C@H](CN(C)S(=O)(=O)c2ccccc2)O3)cc1
  -3	1
CC(=O)N1[C@@H]2Cn3c(ccc(-c4cccnc4)c3=O)[C@H]1[C@@H](C(=O)N1CCc3ccccc3C1)[C@@H]2CO
  2	1
CNC[C@@H]1Oc2ccc(NC(=O)Nc3cccc4ccccc34)cc2C(=O)N([C@H](C)CO)C[C@H]1C
  -6	-10
COc1ccc2c3c([nH]c2c1)[C@H](CO)N(C(=O)C1CC1)CC31CN(C)C1
  -19	-18
C[C@H](CO)N1C[C@H](C)[C@@H](CN(C)C(=O)c2cccc(F)c2)Oc2cc(-c3ccncc3)ccc2S1(=O)=O
  14	-2
Cc1ccc(S(=O)(=O)NC[C@H]2CC[C@@H]3[C@@H](CN3Cc3ccccc3C(=O)O)O2)cc1
  14	18
C[C@@H]1CN([C@@H](C)CO)C(=O)c2cc(-c3ccccc3)cnc2O[C@@H]1CN(C)Cc1ccc(C(=O)O)cc1
  16	4
C[C@H]1CN([C@@H](C)CO)S(=O)(=O)c2ccc(C3=CCCC3)cc2O[C@@H]1CN(C)Cc1cncnc1
  11	8
COc1cccc(S(=O)(=O)N(C)C[C@@H]2Oc3cc(Br)ccc3S(=O)(=O)N([C@@H](C)CO)C[C@@H]2C)c1
  -30	-24
C[C@@H]1CN([C@@H](C)CO)C(=O)c2cccc(N(C)C)c2O[C@H]1CN(C)S(C)(=O)=O
  -3	-4
COc1ccc(NC(=O)Nc2cccc3c2O[C@@H](CN(C)S(=O)(=O)c2cn(C)cn2)[C@@H](C)CN([C@H](C)CO)C3=O)cc1
  14	13

# Values run as follows: Vaccinia stage	Vaccinia stage Venus
COc1ccc(NC(=O)N[C@H]2CC[C@@H](CCn3cc(-c4ccccn4)nn3)O[C@@H]2CO)cc1
  -6	0
C[C@H]1CN([C@@H](C)CO)C(=O)c2cc(NC(=O)CCC(F)(F)F)ccc2O[C@H]1CN(C)C(=O)Nc1ccc(F)cc1
  -12	-4
COc1ccc(NC(=O)N(C)C[C@@H]2OCCCC[C@@H](C)Oc3ccc(NS(=O)(=O)c4ccc(F)cc4)cc3C(=O)N([C@@H](C)CO)C[C@H]2C)cc1
  5	-8
COc1ccc(NC(=O)N2C[C@@H]3N[C@H](C2)C3c2ccc(-c3cccc(F)c3)cc2)cc1 (stereo partly drawn)
  -32	-24
C[C@@H]1CN([C@@H](C)CO)C(=O)c2cc(NS(C)(=O)=O)ccc2O[C@@H](C)CCCCO[C@@H]1CN(C)C(=O)Nc1ccc(C(F)(F)F)cc1
  -17	-16
Cc1ccc(S(=O)(=O)Nc2ccc3c(c2)C(=O)N([C@H](C)CO)C[C@H](C)[C@H](CN(C)S(=O)(=O)c2ccc(C)cc2)O3)cc1
  -4	-3
CO[C@H]1CN(C)C(=O)c2cc(NS(=O)(=O)c3cn(C)cn3)ccc2OC[C@H](C)N(CCC(F)(F)F)C[C@H]1C
  20	6
CO[C@H]1CN(C)C(=O)c2cc(NS(=O)(=O)c3cccc(F)c3)ccc2OC[C@H](C)N(C(=O)Cc2cccnc2)C[C@H]1C
  4	14
CS(=O)(=O)N1[C@@H]2Cn3c(ccc(C4=CCCCC4)c3=O)[C@H]1[C@@H](C(=O)N1CCOCC1)[C@@H]2CO
  1	1
O=C(NCCCN1CCOCC1)[C@H]1[C@H](CO)[C@H]2Cn3c(cccc3=O)[C@@H]1N2C(=O)C1CCCCC1
  19	13
C[C@@H]1CN([C@H](C)CO)C(=O)c2cc(-c3cccc(F)c3)cnc2O[C@@H]1CN(C)S(C)(=O)=O
  12	11
O=C(C[C@H]1C[C@H]2c3cc(NC(=O)NC4CCCC4)ccc3O[C@H]2[C@H](CO)O1)NCc1ccccc1F
  19	9
C[C@@H]1CN([C@H](C)CO)C(=O)c2cc(C#CCc3ccccc3)cnc2O[C@@H]1CN(C)CC1CCOCC1
  -16	-5
O=C(C[C@H]1CC[C@H]2[C@@H](COC[C@@H](O)CN2C(=O)c2ccc(F)cc2)O1)N1CCOCC1
  7	7
O=C(N[C@H]1CC[C@@H](CCn2cc(C3(O)CCCC3)nn2)O[C@H]1CO)C1CCC1
  3	7

# An excerpt of these results, with bars between the fields.
molecule | Vaccinia stage | Vaccinia stage Venus
COc1ccc(NC(=O)N(C)C[C@@H]2OCCCC[C@@H](C)Oc3ccc(NS(=O)(=O)c4ccc(F)cc4)cc3C(=O)N([C@@H](C)CO)C[C@H]2C)cc1 | 5 | -8
COc1ccc(NC(=O)N2C[C@@H]3N[C@H](C2)C3c2ccc(-c3cccc(F)c3)cc2)cc1 (stereo partly drawn) | -32 | -24
C[C@@H]1CN([C@@H](C)CO)C(=O)c2cc(NS(C)(=O)=O)ccc2O[C@@H](C)CCCCO[C@@H]1CN(C)C(=O)Nc1ccc(C(F)(F)F)cc1 | -17 | -16

# Other records.
# Values run as follows: Vaccinia stage	Vaccinia stage Venus
C[C@@H]1CCCCO[C@H](CN(C)S(C)(=O)=O)[C@@H](C)CN([C@@H](C)CO)C(=O)c2cc(NC(=O)Nc3ccccc3)ccc2O1
  10	6
COc1ccc2c3c([nH]c2c1)[C@H](CO)N(C(=O)Cc1ccccc1)CC31CN(C(=O)Nc2ccccc2F)C1
  -23	-33
CC(C)(O)C#Cc1cccc(-c2nc(C(=O)N[C@@H]3CCN(Cc4ccccc4)C3)cc3c2[C@H](CCO)N(S(=O)C(C)(C)C)C3)c1 (stereo partly drawn)
  -9	1
COc1ccc(S(=O)(=O)N(C)C[C@H]2OCCCC[C@@H](C)Oc3ccc(NC(=O)Nc4ccc5c(c4)OCO5)cc3C(=O)N([C@@H](C)CO)C[C@@H]2C)cc1
  13	9
CC(=O)N(C)C[C@H]1Oc2ncc(C#CC(C)(C)O)cc2C(=O)N([C@@H](C)CO)C[C@@H]1C
  10	14
C[C@H](CO)N1C[C@H](C)[C@H](CN(C)C(=O)Nc2ccccc2)Oc2c(NC(=O)Nc3cccc4ccccc34)cccc2C1=O
  -16	-4
CCCC(=O)Nc1ccc2c(c1)C(=O)N(C)[C@@H]1CC[C@@H](CC(=O)NC3CCCC3)O[C@H]1CO2
  10	9
COCc1cn(CC[C@@H]2CC[C@@H](NC(=O)Nc3c(C)noc3C)[C@H](CO)O2)nn1
  14	18
COCC#Cc1ccc([C@@H]2[C@H]3CN(C(=O)c4ccncc4)CC(=O)N3[C@H]2CO)cc1
  18	16
O=C(C[C@H]1C=C[C@@H](NC(=O)CC2CC2)[C@@H](CO)O1)NCc1ccc(Cl)cc1
  22	15
Cc1cccc(S(=O)(=O)N[C@H]2CC[C@@H](CCNC(=O)c3cnccn3)O[C@@H]2CO)c1
  -9	-3
C[C@H](CO)N1C[C@H](C)[C@@H](CN(C)S(=O)(=O)c2ccccc2)Oc2ncc(-c3cccc(C(=O)N(C)C)c3)cc2C1=O
  -9	-8
CCNC(=O)Nc1ccc2c(c1)C(=O)N(C)[C@H]1CC[C@@H](CC(=O)NCc3ccccc3F)O[C@@H]1CO2
  3	8
C[C@H](NC(=O)C[C@@H]1CC[C@H]2[C@@H](COC[C@H](O)CN2C(=O)Nc2ccccc2)O1)c1ccccc1
  -1	-4
O=C(C[C@@H]1CC[C@H](NS(=O)(=O)c2ccc(F)cc2)[C@@H](CO)O1)NC1CCC1
  -4	2

# Values run as follows: Vaccinia stage	Vaccinia stage Venus
Cc1ccc(S(=O)(=O)N(C)C[C@@H]2Oc3ccc(NC(=O)CCC(F)(F)F)cc3CC(=O)N([C@@H](C)CO)C[C@@H]2C)cc1
  -20	-11
O=C(N[C@@H]1CC[C@@H](CCn2cc(-c3ccc(F)cc3)nn2)O[C@H]1CO)c1cnccn1
  2	4
CCCc1cn(CC[C@H]2CC[C@@H](NC(=O)Cc3cccnc3)[C@@H](CO)O2)nn1
  14	13
C[C@@H]1CN([C@H](C)CO)C(=O)c2cc(NS(=O)(=O)c3ccc(F)cc3)ccc2O[C@@H](C)CCCCO[C@@H]1CN(C)S(=O)(=O)c1ccccc1
  -27	-19
COc1ccc(S(=O)(=O)Nc2ccc3c(c2)C(=O)N([C@@H](C)CO)C[C@H](C)[C@@H](CN(C)Cc2ccc(Oc4ccccc4)cc2)O3)cc1
  -30	-27
C[C@H]1CN([C@@H](C)CO)C(=O)c2cc(C3=CCCCC3)cnc2O[C@H]1CN(C)C(=O)c1ccc(F)cc1
  -6	-5
CN1C(=O)c2cc(NC(=O)Cc3ccccc3)ccc2OC[C@H]2O[C@H](CC(=O)NC3CCC3)CC[C@@H]21
  2	-6
CN(C)CC#Cc1ccc([C@H]2[C@@H](CO)N3C(=O)CN(C(=O)c4ccc(F)cc4)C[C@H]23)cc1
  34	8
C/C=C/c1ccc2c(c1)O[C@@H](CN(C)Cc1ccc(C(=O)O)cc1)[C@H](C)CN([C@H](C)CO)S2(=O)=O
  8	13
C[C@H](CO)N1C[C@H](C)[C@@H](CN(C)Cc2ccccc2)Oc2cc(C#Cc3ccccn3)ccc2S1(=O)=O
  5	3
CCNC(=O)C[C@@H]1CC[C@H]2[C@@H](COc3ccc(NC(=O)Cc4ccccc4)cc3C(=O)N2C)O1
  5	12
CCCNC(=O)N(C)C[C@@H]1Oc2ncc(C3=CCCC3)cc2C(=O)N([C@H](C)CO)C[C@H]1C
  5	10
C[C@H](CO)N1C[C@H](C)[C@@H](CN(C)C)Oc2cc(-c3ccc(C(=O)N(C)C)cc3)ccc2S1(=O)=O
  4	4
Cc1cccc(-c2ccc([C@H]3[C@@H](CO)N4CCCCN(S(=O)(=O)c5ccccc5C)C[C@H]34)cc2)c1
  ?	·
CCCNC(=O)C[C@@H]1CC[C@H]2[C@@H](COc3ccc(NC(=O)Nc4cccc(C)c4)cc3C(=O)N2C)O1
  6	-6
CO[C@H]1CN(C)C(=O)c2cc(NC(=O)Nc3ccccc3)ccc2OC[C@H](C)NC[C@H]1C
  -10	-10
C[C@H]1CN([C@@H](C)CO)C(=O)c2ccccc2-c2ccccc2CO[C@@H]1CN(C)S(=O)(=O)c1ccccc1F
  -6	-13

# An excerpt (hit frequency here may not be typical).
